Screening results deposited in PubChem BioAssay by National Center for Advancing Translational Sciences (NCATS).
StopGo FLuc: Primary qHTS Assay for Foot and Mouth Disease Virus Antivirals against NCGC Sytravon and CBC Compound Libraries: Firefly Luciferase Signal; HEK cells with a luciferase reporter of 2A StopGo recoding; Potency, µM (top dose mostly 57.5 µM), inactives show at the highest dose signal change, negative = less light; 120,000 compounds, 0.23% hits; AID 1745856, 2022; active = well fitted falling curve with a large enough effect; inconclusive = small, poorly fitted or top-dose-only effect; inactive = no such curve, though single readings can be large or run the other way; further: nearly all actives have a fitted effect of over 60% in size; overnight with compound
2A Renilla: Primary qHTS Assay for Foot and Mouth Disease Virus Antivirals against NCGC Sytravon and CBC Compound Libraries: Renilla Luciferase Signal; HEK cells with a luciferase reporter of 2A StopGo recoding; Potency, µM (titrated, usually from 57.5 µM), for the others: at the top dose signal change, negative = less light; 120,000 compounds, 0.32% hits; AID 1745857, 2022; active means well fitted falling curve with a large enough effect; inconclusive means small, poorly fitted or top-dose-only effect; inactive means no such curve, though single readings can be large or run the other way; further: nearly all actives have a fitted effect of over 55% in size; overnight with compound
* = called active by the depositor; ? = inconclusive; [ ] = remark or other dose. On the % scale 0 is the no-effect control and ±100 the full control effect; potency means the concentration at half of the fitted maximal effect.

SMILES	StopGo FLuc	2A Renilla
CCc1ccccc1NC(=O)C1=CC(c2ccc3c(c2)OCO3)=NS(=O)(=O)N1C	-3%	-9%
Cc1nc2nc(N(Cc3ccccc3)C(=O)c3ccco3)[nH]n2c(=O)c1Cc1ccccc1Cl	15%	3%
Cn1cc(C(C(=O)O)N2CCN(Cc3cccc(Cl)c3)CC2)c2cc(C(=O)O)ccc21 (stereo not given)	-1%	-5%
CCOc1ccc(N(CC(=O)Nc2ccccc2CC)S(=O)(=O)c2c(C)[nH]c(=O)[nH]c2=O)cc1	-1%	-6%
COC(=O)Cn1c(=O)c2c(nc(-n3nc(C)cc3C)n2C)n(C)c1=O	-1%	-7%
CCc1c(C)sc(NC(=O)CCc2ccccc2)c1C#N	83%[activator]	0%
Cn1c(CCn2ccccc2=O)nc2cc(NC(=O)c3ccccc3)ccc21	150%[activator]	11%
Cc1cc(OC(=O)c2cc(-c3ccc4c(c3)OCCO4)on2)ccc1Cl	0%	-12%
CSCC(=O)NCCc1ccccn1	16%	10%
CCOC(=O)C1CCN(C(=O)CSc2n[nH]c(-c3ccc(OC)cc3)n2)CC1	8%	?
COc1ccc(Cn2nc(-c3ccc(F)cc3OC)ccc2=O)cc1	23%	20%
CC(=O)c1ccc(NC(=O)C2Cc3ccccc3N2C(=O)c2ccccc2)cc1 (stereo not given)	-5%	-8%
CCC1CCCCN1C(=O)CSc1n[nH]c(-c2ccccc2)n1 (stereo not given)	20%	?
Cc1ccccc1NC(=O)N1CCN(c2ccc(=O)n(-c3ccc(F)cc3)n2)CC1	6%	-10%
CC(=O)NC(C(=O)NCc1ccc(C)cc1)C1CCCC1 (stereo not given)	2%	1%
Cc1ccc(-c2nc3cc(NC(=O)c4cc5ccccc5o4)ccc3o2)cc1Cl	8%	-2%
COC(=O)Nc1cccc(C(=O)NCc2ccccc2)c1	3%	16%
Cc1ccc(OCCNC(=O)c2nn(C)c(=O)c3ccccc23)cc1	4%	1%
COc1cc(C(=O)N2CCCCCCC2)cc(OC)c1OC	-1%[11.5 µM]	8%
CC(NCc1ccccc1)c1ccccc1 (stereo not given)	0%	-2%
C=CCNCc1ccc(C)cc1	-16%	-13%
Cc1nc2sc3c(c2c2nc(C(=O)NCc4ccncc4)nn12)CC(C)(C)OC3	1%	-4%
COc1cccc(NC(=O)Cn2cnc3c(nc4n3CCCCC4)c2=O)c1	-7%	-9%
CC(C)C(=O)NCCNC(=O)NC(CN(C)C)c1ccccc1 (stereo not given)	-2%	2%
CCc1ccc(S(=O)(=O)c2nnn3c2nc(NCc2ccccc2OC)c2cc(Cl)ccc23)cc1	-4%	-4%
CC(C)c1ccccc1NC(=O)c1ccc2ccccc2n1	24%	8%
O=C(OC(C(=O)c1ccccc1)c1ccccc1)c1ccco1 (stereo not given)	10%	6%
CCOCCCNc1nc(-c2ccc(S(=O)(=O)N3CCCCCC3)cc2)cs1	?	-22%
CCCCCOc1ccccc1/C(=C\SC)n1ccnc1	-27%	11%
Cc1cccc2cc(C(=O)O)[nH]c12	39%[activator]	22%
CC(Oc1ccc(Br)cc1Cl)C(=O)NN (stereo not given)	-7%	11%
COc1ccc(CCNC(=O)CSc2nc(-c3ccc(OC)c(OC)c3)ccc2C#N)cc1	10%	13%
CC1(C)Cc2cccc(OCC(=O)OCC(=O)Nc3ccccc3)c2O1	-1%	-10%
O=C(Nc1ccccc1NC(=O)c1ccncc1)c1ccncc1	54%[activator]	14%
CCOC(=O)c1cc(NC(=O)CC2Sc3ccccc3NC2=O)cc(C(=O)OCC)c1 (stereo not given)	38%[activator]	109%[activator]
CCCCN(CC)CCNC(=O)C1CCCN(S(=O)(=O)c2cccc3nsnc23)C1 (stereo not given)	0%	-5%
Cc1ccc(C(O)CNC(=O)Nc2ccccc2)cc1 (stereo not given)	100%[activator]	-2%
S=C(NCCC(c1ccccc1)c1ccccc1)Nc1ccc(Nc2ccccc2)cc1	8%	92%[activator]
CCN(Cc1nc2ccccc2c(=O)[nH]1)C(=O)Cc1csc(-c2c(Cl)cccc2Cl)n1	?	-26%
COc1ccc(S(=O)(=O)NCCc2nnc3ccc(SCc4ccccc4Cl)nn23)cc1	?	1%
CCOc1ccccc1CNC(=O)Cn1nc(N2CCN(c3ccccc3)CC2)ccc1=O	-19%	-4%
O=C(Nc1ccccc1-c1nc(Cc2ccccc2)no1)c1cccs1	10%	1%
CC(C)Cn1cnc2nc(CSc3ccccc3NC(=O)c3ccccc3F)cc(=O)n21	29%	8%
COc1ccc(CCNC(=O)C(=O)NCC(c2ccco2)S(=O)(=O)c2ccc(C)cc2)cc1 (stereo not given)	-26%	-18%
CCCOc1ccccc1C(=O)N(Cc1ccc(C)cc1)C1CCS(=O)(=O)C1 (stereo not given)	7%	9%
CSc1cccc(NC(=S)NCCSc2ccc(Cl)cc2)c1	?	22%
CCOc1ccc2nc(COc3ccc(C)cc3)[nH]c2c1	159%[activator]	15%
CCOC(=O)c1c(NC(=O)c2ccc(S(=O)(=O)N(CC)CC)cc2)sc2c1CCCCC2	20%	-11%
CC(C)n1c(=N)c(C(=O)NCc2ccccc2)cc2c(=O)n3ccccc3nc21	-14%	-8%
FC(F)(F)c1ccc(CCNC(=S)NC2CC2)cc1	24%	-8%[1.06 µM]
Cc1ccc2[nH]c(CSc3nnc(-c4ccccc4)n3C)cc(=O)c2c1	?	?
Cc1ccc(COc2cccc(C3C4=C(CCCC4=O)OC4=C3C(=O)CCC4)c2)cc1	-7%	-11%
CCOc1ccc(C(=O)CCC(=O)OCC(=O)c2ccc(OC)c(Br)c2)cc1	-8%	3%
CCOc1ccc(N2C(=O)c3ccccc3NC2c2cn(C)c(=O)n(C)c2=O)cc1 (stereo not given)	63%[activator]	1%
NCCNCCc1ccccc1	0%	10%
CCOC(=O)c1cnn2c(C(F)(F)F)cc(-c3ccc(Br)cc3)nc12	-24%	37%[activator]
Cc1cccc(-n2c(SCc3nc4ccccc4o3)nnc2N2CCOCC2)c1	6%	9%
CCc1ccc2oc(-c3cccc(NC(=O)c4cc(OC)c(OC)c(OC)c4)c3)nc2c1	86%[activator]	22%
Cc1ccc(NC(=O)c2c(NC(=O)c3ccc(F)cc3)sc3c2CCCC3)cc1C	0%	-3%
Cc1ccc(-c2cc(C(F)(F)F)c(C#N)c(SCC(=O)Nc3ccccc3F)n2)cc1	23%	3%

More entries follow:
SMILES	StopGo FLuc	2A Renilla
COCCNC(=O)CSc1nnc(-c2ccc(OC)c(OC)c2)c(-c2ccc(OC)c(OC)c2)n1	-14%	22%
N#C/C(=C/c1ccccc1OCc1ccccc1)c1cccc(F)c1	11%	10%
CCc1nn2c(=O)cc(COC(=O)c3ccc(NC(=O)CCc4ccccc4)cc3)nc2s1	-15%	-12%
O=C(Nn1c(-c2cccc(Cl)c2)nc2ccccc2c1=O)c1ccccc1Br	9%	13%
COc1ccc(OC)c(Nc2nc3ccccc3nc2-n2nc(C)cc2C)c1	-3%	-12%
CCOc1cc(C(=O)Nc2ccc(-c3nc4cc(Cl)ccc4o3)cc2)cc(OCC)c1OCC	8%	-7%
COC(=O)c1ccc(COc2ccc3c(=O)c(-c4ccccc4OC)c(C)oc3c2)cc1	1µM*	-35%
COc1cc(NC(=O)CC2C(=O)N(c3ccc(Cl)cc3)C(=O)N2Cc2cccs2)cc(OC)c1 (stereo not given)	-27%	-4%
Cc1ccc2nc(C)c(C(=O)NCC(=O)Nc3c(C)cccc3C)cc2c1	-10%	-13%
Cc1ccc(CN2CCN(C(=O)c3ccn(COc4cccc(Cl)c4)n3)CC2)cc1	-22%	-24%
Cc1ccc(Nc2c(-c3ccc(C)cc3)nc3ccc(C)cn23)cc1	48%[activator]	9%
CC(C)CCCC(C)NC(=S)NN (stereo not given)	-6%	-5%
O=C(CCS(=O)(=O)C1CCCC1)NCC(O)c1cccc(Cl)c1 (stereo not given)	2%	7%
CCCCCn1nc(C(=O)Nc2cccc(S(=O)(=O)NC3=NCCC3)c2)c2ccccc2c1=O	-4%	363%[activator]
CCN1CCN(S(=O)(=O)c2ccc(Cl)c(C(=O)N3CCN(c4ccccn4)CC3)c2)CC1	-5%	-5%
CCOC(=O)Cc1ccc(NC(=O)Nc2nnc(N3CCCC3)s2)cc1	8%	0%
O=C(O)c1ccc(-c2ccccc2)cc1C(=O)O	22%	4%
COc1ccc(NC(=O)CSc2nc3c(=O)[nH]cnc3n2C)c(OC)c1	0%	22%
O=C1COc2cc(S(=O)(=O)CCC(=O)N3CCN(c4ccccc4)CC3)c(Cl)cc2N1	20%	-4%
O=S(=O)(c1ccc(Br)cc1)c1nnn2c1nc(Nc1cccc(C(F)(F)F)c1)c1sccc12	-28%	4%
Cc1ccccc1-c1nc(CSCC(=O)NCc2ccc3c(c2)OCO3)c(C)o1	16%	23%
CC(=O)Nc1cccc(NC(=O)COc2ccc3c(=O)c(-c4ccccc4)c(C)oc3c2)c1	65%[activator]	9%
Cc1cc(C)c(-c2n[nH]c3c2C(c2ccccc2F)N(Cc2ccco2)C3=O)c(O)c1 (stereo not given)	-9%	-5%
CN(Cc1ccccc1)C(=O)C1CCCN(Cc2cccc3ccccc23)C1 (stereo not given)	-13%	23%
CS(=O)(=O)c1ccc(NC(=O)COc2ccccc2C(N)=O)cc1	-2%	-14%
COc1ccc(-c2ccc(=O)n(CC(=O)N3CCC(Cc4ccccc4)CC3)n2)cc1	-22%	-26%
CC1=C(C(=O)OCc2ccc3c(c2)OCO3)C(c2cccc(Cl)c2Cl)CC(=O)N1 (stereo not given)	3%	-5%
Cc1nc2cc(NC(=O)COc3ccccc3Cc3ccccc3)ccc2o1	6%	0%
CC/C(=N\O)c1cccs1	9%	-9%
Cc1ccccc1-c1cc(C(=O)NCCc2ccccc2)c2ccccc2n1	84%[activator]	22%
O=C1CC(c2ccccc2)[Se]C(c2ccccc2)C1 (stereo not given)	-10%	?
O=C(Nc1cccnc1Cl)c1cc(-c2cccc(Cl)c2)on1	-8%	-13%
Cc1sc2ncn(CC(=O)N3CCN(c4cccc(Cl)c4)CC3)c(=O)c2c1S(=O)(=O)N1CCN(c2ncccn2)CC1	-23%	-4%
CC1C(=O)Nc2ccc(S(=O)(=O)Nc3ccccc3Br)cc2NC1=O (stereo not given)	0%	-1%
CCOCCn1c(N2CCC(C)CC2)nc2c1c(=O)[nH]c(=O)n2C	7%	-1%
COc1ccccc1C(=O)Nc1ccc2oc(-c3cccc4c(Br)cccc34)nc2c1	-11%	-8%
CC(C)NS(=O)(=O)c1cccc(C(=O)OCc2nc3ccccc3o2)c1	77%[activator]	-11%
CCc1ccc(Nc2nc3c(S(=O)(=O)c4cccc(Cl)c4)nnn3c3ccsc23)cc1	-9%	0%
O=C(CSc1nnc(-c2cccnc2)o1)c1ccc(S(=O)(=O)N2CCCC2)cc1	-6%	-7%
O=c1c2c(nc(NCCO)n1C1CCCCC1)-c1ccccc1CC21CCCC1	-16%	-10%
CCCn1c(CN(C)Cc2ccccc2)nc2c1c(=O)n(C)c(=O)n2C	35µM*	?

In the list so far, these contain an aryl thioether with sulfur outside any ring.
SMILES	StopGo FLuc	2A Renilla
CCOC(=O)C1CCN(C(=O)CSc2n[nH]c(-c3ccc(OC)cc3)n2)CC1	8%	?
CCC1CCCCN1C(=O)CSc1n[nH]c(-c2ccccc2)n1 (stereo not given)	20%	?
COc1ccc(CCNC(=O)CSc2nc(-c3ccc(OC)c(OC)c3)ccc2C#N)cc1	10%	13%
COc1ccc(S(=O)(=O)NCCc2nnc3ccc(SCc4ccccc4Cl)nn23)cc1	?	1%
CC(C)Cn1cnc2nc(CSc3ccccc3NC(=O)c3ccccc3F)cc(=O)n21	29%	8%
CSc1cccc(NC(=S)NCCSc2ccc(Cl)cc2)c1	?	22%
Cc1ccc2[nH]c(CSc3nnc(-c4ccccc4)n3C)cc(=O)c2c1	?	?
Cc1cccc(-n2c(SCc3nc4ccccc4o3)nnc2N2CCOCC2)c1	6%	9%
Cc1ccc(-c2cc(C(F)(F)F)c(C#N)c(SCC(=O)Nc3ccccc3F)n2)cc1	23%	3%
COCCNC(=O)CSc1nnc(-c2ccc(OC)c(OC)c2)c(-c2ccc(OC)c(OC)c2)n1	-14%	22%
COc1ccc(NC(=O)CSc2nc3c(=O)[nH]cnc3n2C)c(OC)c1	0%	22%
O=C(CSc1nnc(-c2cccnc2)o1)c1ccc(S(=O)(=O)N2CCCC2)cc1	-6%	-7%
